Compound activity (PubChem BioAssay)
Ecoli rRNA inh = inhibitors of bacterial rRNA selective over humanized ribosomes | E. coli WT GFP vs humanized-ribosome RFP mutants, fluorescence, 24 h; stronger effect = lower value; DMSO median 0, no signal -100 | GFP signal change (wild-type ribosome), % (test concentration not listed) | actives 1.6% (n = 350,000) | AID 720706;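 active = significant combined selectivity score with lowered wild-type GFP, culture density cut under 30%, mutant RFP and density less affected; inactive = any of these conditions unmet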; also: one replicate is shown; some compounds called inactive have numbers as strong as hits
ALR inh = inhibitors of human sulfhydryl oxidase ALR; purified ALR, DTT oxidation, H2O2 HRP-luminol luminescence; AID 485317; inhibition, % (concentration not given with the values); P55789; actives 3.8% (n = 290,000);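 active = mean and each replicate at 75% or more; inconclusive = only one of the two met; inactive = neither met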;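 also: stock transfer was 7.5 nL into about 7.5 µL; 0% = neutral wells and 100% = wells with inactivated enzyme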
Target sequence (P55789 whole entry, looked up): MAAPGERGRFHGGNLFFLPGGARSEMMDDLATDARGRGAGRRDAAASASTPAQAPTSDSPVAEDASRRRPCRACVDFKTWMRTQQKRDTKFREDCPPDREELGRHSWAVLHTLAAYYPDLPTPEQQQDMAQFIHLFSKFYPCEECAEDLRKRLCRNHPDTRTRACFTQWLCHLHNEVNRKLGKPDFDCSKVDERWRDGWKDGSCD
HNF4A DNA FP = change in binding of human HNF4 alpha to DNA; P41235; HNF4a-FITC DNA binding, fluorescence polarization, 1 h; activity change, % at 10 µM; actives 0.3% (n = 360,000); AID 1224865; in the data active = activity change above about 30%, passing the limit was not always enough;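 also: controls were the assay level and a saturating level of protein; the project sought stronger binding though the title names inhibitors; some compounds called inactive have numbers as strong as hits; positive values seem to mean higher polarization but the record does not say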
Target sequence (P41235 whole entry, looked up): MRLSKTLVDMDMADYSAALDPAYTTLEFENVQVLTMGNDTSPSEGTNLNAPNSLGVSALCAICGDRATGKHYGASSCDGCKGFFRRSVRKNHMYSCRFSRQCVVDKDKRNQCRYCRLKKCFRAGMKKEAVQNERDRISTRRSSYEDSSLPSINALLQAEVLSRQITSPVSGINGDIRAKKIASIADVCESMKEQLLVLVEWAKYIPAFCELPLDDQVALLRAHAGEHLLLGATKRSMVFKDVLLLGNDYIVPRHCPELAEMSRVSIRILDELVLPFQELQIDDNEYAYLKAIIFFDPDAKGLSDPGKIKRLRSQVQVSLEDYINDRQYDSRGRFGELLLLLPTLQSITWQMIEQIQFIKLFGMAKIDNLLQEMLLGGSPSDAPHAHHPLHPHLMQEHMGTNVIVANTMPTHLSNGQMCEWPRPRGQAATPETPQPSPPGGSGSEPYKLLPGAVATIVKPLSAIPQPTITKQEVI
Ecoli growth = blocks Escherichia coli growth; OD600 absorbance (concentration not given with the values); actives 0.21% (n = 330,000); OD600, 23 h; stronger effect = lower value; AID 1053175;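 active = OD600 absorbance below the run mean of sample wells minus 3.6 SD, in any replicate, cut at about 0.56 in these data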;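 also: stock transfer was 300 nL into about 60 µL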
AF4-AF9 inh = MLL-AF4/AF9 protein interaction inhibition. actives 0.47% (n = 350,000). AID 651704. inhibition, % at 10 µM. AlphaScreen, biotin-AF4 peptide binding to FLAG-AF9;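 active = every replicate reaching a set inhibition limit, whatever the replicate mean, cut at about 25% in these data; inconclusive = mean inhibition reaches that limit but some replicates miss it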;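 also: 0% = plate neutral control median and 100% = total signal loss; the record names both 10 and 1 µM as test concentration; the first replicate is given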
FGF22 binding = FGF22 (human) thermal shift binding; recombinant FGF22 thermal shift, SYPRO orange fluorescence; percent of sucrose octasulfate shift, DMSO zero; calls only at 9.99 µM; Q9HCT0; actives 1.5% (n = 340,000);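 active = melting point raised past a set limit in the mean and every replicate; inconclusive = no clear call; three in four hits are not shown here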
Target sequence (Q9HCT0 whole entry, looked up): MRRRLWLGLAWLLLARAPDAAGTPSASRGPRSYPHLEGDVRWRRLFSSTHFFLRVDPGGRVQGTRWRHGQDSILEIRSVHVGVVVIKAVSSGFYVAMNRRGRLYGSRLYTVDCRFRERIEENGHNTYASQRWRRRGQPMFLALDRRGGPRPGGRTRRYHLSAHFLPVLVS
Vif A3G = HIV-1 Vif–A3G interaction blockers – biochemical, TR-FRET, GST-Vif 1-94, biotin-A3G peptide, dose response retest, primary screen (AID 1117319). TR-FRET GST-Vif / biotin-A3G peptide binding; higher % means a stronger effect; test concentration not given here; strong numbers were not always called active. inhibition, %; hits with a dose series show IC50 in µM. actives 0.57% (n = 260,000);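 active = above the screen mean plus three standard deviations and confirmed in dose response; inconclusive = results disagree or hit not tested in dose response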;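 also: Vif residues 1-94 fused to GST binding biotinylated APOBEC3G peptide 110-148; 0% = full assay without inhibitor and 100% = GST in place of GST-Vif; retest series ran down from 100 µM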
Ecoli rRNA inh OD600 = further read-out of Ecoli rRNA inh, marked with its call; OD600 change, %; measured here: OD600 growth;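 optical density of the mix in the first replicate; 0 = DMSO median and -100 = no signal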
Ecoli rRNA inh RFP = second read-out of Ecoli rRNA inh, no call of its own (marks repeat the call); RFP signal change, %; measured here: RFP humanized mutant strains;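 first replicate; 0 = DMSO median and -100 = no signal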
* = called active by the depositor; i = inactive; ? = inconclusive; . = no result given; & = joins results of further samples. Only part of the results is shown; count on the stated rates, not on these rows.

SMILES	Ecoli rRNA inh	Ecoli rRNA inh OD600	Ecoli rRNA inh RFP	ALR inh	HNF4A DNA FP	Ecoli growth	AF4-AF9 inh	FGF22 binding	Vif A3G
CCn1cnc2c1c(=O)n(CC(=O)OC(C)C(N)=O)c(=O)n2Cc1ccccc1 (stereo not drawn)	8	12	-3.7	-13	-2.6	0.7	-17	i	.
COc1ccc(C(=O)NC2CCCCC2)cc1S(=O)(=O)N1CCOCC1	0	4	0.2	-2	2.2	0.66	-4.0	i	.
Cc1ccc(S(=O)(=O)NCc2ccc(C(=O)NCCCN3CCN(C)CC3)cc2)cc1	.	.	.	.	1.8	0.67	.	.	3%
C[C@@H]1CN([C@H](C)CO)S(=O)(=O)c2ccc(Br)cc2O[C@@H]1CN(C)Cc1ccc(-c2ccccc2)cc1	4&7	-6&4	-2.1&5.4	.	0.4	.	3.2	i	0%
CCCN(C)C[C@@H]1Oc2ncc(C#Cc3ccc(OC)c(OC)c3)cc2C(=O)N([C@H](C)CO)C[C@@H]1C	-1	8	0.6	.	.	.	7.4	i	.
CNC[C@@H]1Oc2ccc(NC(=O)Cc3ccccc3)cc2C(=O)N([C@H](C)CO)C[C@H]1C	1	1	0.4	.	.	.	0.7	i	.
CCOc1ccc(NC(=O)Nc2cc(C(C)C)c(O)cc2C)cc1	-3	-2	4.0	4	-1.6	0.66	-3.0	i	-6%
Cc1cccc(C(=O)N/N=C/c2ccc(OCC(=O)N3CCCCC3)cc2)c1	.	.	.	-2	-2.7	.	.	.	-3%
C[C@@H]1CN([C@@H](C)CO)S(=O)(=O)c2ccc(C#CC(C)(C)O)cc2O[C@H]1CN(C)C(=O)CN(C)C	5	7	2.7	.	.	.	-2.4	i	.
CC1=CN2C(=NC(=O)CC2(C)C(=O)N(CC(=O)NC2CCCC2)Cc2ccc(Cl)cc2)C=C1 (stereo not drawn)	3	6	-0.5	-5	-0.6	0.67	3.5	i	.
COc1ccccc1/C=C1\SC(=S)N(CCC(=O)Nc2ccc(C(=O)O)c(O)c2)C1=O	-33	-44	-1.6	59	-6.4	0.66	26*	.	5%
CN(CCc1ccccn1)C1CCCN(S(=O)(=O)c2ccc(F)c(Cl)c2)C1 (stereo not drawn)	3	-2	3.8	1	2.4	0.67	-2.4	i	.
COC(=O)CNC(=O)Cc1c(F)cccc1Cl	6	1	-9.9	-5	-0.4	0.7	4.2	i	5%
COCCNC(=O)/C(C#N)=C/c1cc(C)n(-c2ccc(C)cc2)c1C	3	-2	2.5	1	-2.7	0.68	14	i	4%
Cc1cc(C(=O)Nc2ccccc2C(=O)O)oc1C	-9	-9	-2.6	98*	2.6	0.68	2.4	i	7%
C[C@H]1CN([C@@H](C)CO)C(=O)Cc2cc(NC(=O)Nc3ccc4c(c3)OCO4)ccc2O[C@@H]1CN(C)Cc1ccccc1	1	7	4.0	.	.	.	4.0	i	.
O=C(CS(=O)(=O)c1ccc(Cl)cc1)Nc1nnc(-c2cccs2)o1	-36	-36	-12	0	1.0	0.68	-2.1	i	5%
O=C(CSc1ccccc1)N1CCN(S(=O)(=O)c2ccccc2F)CC1	-1	-3	3.7	13	-3.2	0.68	-3.4	i	.
COc1ccc(NC(=O)N2CCCCN3[C@H](CO)[C@H](c4ccc(C#CCC(C)C)cc4)[C@H]3C2)cc1	-58	-71	-15	.	.	.	9.6	i	.
CC(C(=O)N1CCN(c2ccc([N+](=O)[O-])cc2)CC1)N1C(=O)C2CC=CCC2C1=O (stereo not drawn)	7	0	0.7	1	2.1	0.71	1.6	i	-1%
CNc1ccc(-c2ccccc2CO)cn1	19	16	-1.8	.	1.7	.	2.0	i	.
O=C(/C=C/c1ccco1)N(Cc1cccc(F)c1)C1CCS(=O)(=O)C1 (stereo not drawn)	3	13	1.0	5	2.6	0.7	-0.9	i	.
COc1cccc(C#Cc2cnc3c(c2)C(=O)N([C@@H](C)CO)C[C@H](C)[C@@H](CN(C)C(=O)C2CCC2)O3)c1	-3	-17	11	.	.	.	2.4	i	.
Cc1cc(C)n(-c2nc3ccccc3c(=O)n2OCc2ccc(F)cc2)n1	.	.	.	.	0.7	0.73	.	.	4%
O=C(O)c1cccc(S(=O)(=O)Nc2ccc3c(c2)OCO3)c1	.	.	.	-12	-6.0	0.67	.	.	?
CCC(=O)Nc1nnc(SCC(=O)Nc2cccc(Cl)c2)s1	-3	-7	-0.9	-1	-0.9	0.66	-12	i	.
O=C(O)c1ccc(/C=N/Nc2ncc(Cl)cc2Cl)cc1	3	0	-1.7	48	3.7	.	-0.7	i	-8%
Cc1nc(NCc2ccco2)c2oc3ccccc3c2n1	.	.	.	5	1.7	0.68	.	.	2%
CCN1CCN(c2nc3ccccc3nc2C(C#N)C(=O)OCc2ccccc2)CC1 (stereo not drawn)	.	.	.	-11	6.8	0.69	.	.	6%
NC(=O)[C@H]1CC2(CC(c3cccc(NC(=O)COc4ccc(Cl)cc4)c3)=NO2)CN1C(=O)Cc1ccc([N+](=O)[O-])cc1 (stereo partly drawn)	4	5	-1.2	-1	-4.7	.	15	i	?
O=C(Nc1ccc(Nc2ccccc2)cc1)c1ccc(Cl)cc1Cl	2	8	-4.5	-3	0.0	0.64	2.9	i	.
COc1ccc(OC)c(NC(=S)NCc2ccco2)c1	16	12	-2.6	-3	-1.5	0.72	.	.	.
O=C(NC1CCN(Cc2ccccc2)CC1)C1CCN(S(=O)(=O)c2cccc([N+](=O)[O-])c2)CC1	.	.	.	-23	-1.6	0.7	.	.	.
Cc1ccccc1CC(=O)N1CCOCC1	7	7	1.1	-13	1.6	0.68	2.8	i	.
CCS(=O)(=O)Nc1ccc2c(c1)C(=O)N(C)[C@H]1CC[C@@H](CC(=O)NC)O[C@H]1CO2	6	8	-0.4	.	.	.	-0.6	i	.
Cc1ccc(C(=O)Nc2ccccc2C(=O)O)cc1NC(=O)COc1c(C)cccc1C	-36	-41	-10	2	4.5	0.69	-1.2	i	29%
N#Cc1cnn2ccc(-c3cc(N4CCOCC4)ccc3[N+](=O)[O-])nc12	-5	-2	-2.1	-29	1.8	0.74	1.7	i	-3%
N#Cc1c(-c2ccccc2)nc(SCc2ccc([N+](=O)[O-])cc2)[nH]c1=O	-13	-7	2.3	99*	-3.3	0.66	2.1	i	.
COc1ccc(S(=O)(=O)N2CCOCC2)cc1NC(=O)CN1C(=O)NC2(CCCCC2C)C1=O (stereo not drawn)	1	4	2.7	.	-1.2	0.69	-0.9	i	.
CCCCCN(C(=O)CCC(=O)OCC(=O)NCc1ccc(OC)cc1)c1c(N)n(CCCC)c(=O)[nH]c1=O	7	7	2.5	-5	-0.2	0.7	-2.7	i	.
Cc1ccc(S(=O)(=O)NCc2ccc(C(=O)N3CCc4ccccc4C3)cc2)cc1	-28	-33	1.5	-61	-3.9	0.71	1.4	i	.
CCC(c1nnnn1-c1c(C)cccc1C)N1CCN(CC)CC1 (stereo not drawn)	19	9	5.7	.	1.6	.	1.8	i	.
Cc1cc(C)n2nc(C(=O)OCC(=O)Nc3ccc4c(c3)OC(F)(F)O4)nc2n1	.	.	.	.	0.6	0.78	.	.	-3%
O=C(O)c1cccc(CSc2nc(-c3ccccc3)cc(C(F)(F)F)n2)c1	-56	-79	-30	.	-4.8	0.67	-11	i	32%
C=CCN(c1ccccc1)S(=O)(=O)c1ccc(Cl)c(C(=O)OCC(=O)c2[nH]c(C)c(C(C)=O)c2C)c1	.	.	.	-2	0.6	0.64	.	.	-3%
CC(c1ccccc1)n1cc(C(=O)NCCCn2ccnc2)nn1 (stereo not drawn)	.	.	.	-11	-1.1	0.76	.	.	28%
CCn1cc(C(=O)O)c(=O)c2cc(F)c(N3CCN(C(=S)NC(=O)c4ccc(OC)cc4)CC3)cc21	-56	-79	-21	-3	-2.4	0.076*	0.6	i	.
O=C(Nc1cccnc1)c1cc(-c2cccc(Cl)c2)on1	3	7	-1.5	.	1.8	0.61	6.6	i	-3%

An excerpt from above in order of SMILES length, lowest first.
SMILES	Ecoli rRNA inh	Ecoli rRNA inh OD600	Ecoli rRNA inh RFP	ALR inh	HNF4A DNA FP	Ecoli growth	AF4-AF9 inh	FGF22 binding	Vif A3G
COc1ccc(C(=O)NC2CCCCC2)cc1S(=O)(=O)N1CCOCC1	0	4	0.2	-2	2.2	0.66	-4.0	i	.
CN(CCc1ccccn1)C1CCCN(S(=O)(=O)c2ccc(F)c(Cl)c2)C1 (stereo not drawn)	3	-2	3.8	1	2.4	0.67	-2.4	i	.
CCn1cc(C(=O)O)c(=O)c2cc(F)c(N3CCN(C(=S)NC(=O)c4ccc(OC)cc4)CC3)cc21	-56	-79	-21	-3	-2.4	0.076*	0.6	i	.

The list continues:
SMILES	Ecoli rRNA inh	Ecoli rRNA inh OD600	Ecoli rRNA inh RFP	ALR inh	HNF4A DNA FP	Ecoli growth	AF4-AF9 inh	FGF22 binding	Vif A3G
O=C(C[C@@H]1CC[C@H](NC(=O)C2CC2)[C@H](CO)O1)Nc1nccs1	2	4	2.7	.	.	.	-2.8	i	.
CCOC(=O)C1=C(C)OC(N)=C(C#N)C1c1ccoc1 (stereo not drawn)	.	.	.	8	-5.0	0.66	.	.	3%
COc1cccc(NC(=O)CN(C)C(=O)CSc2ccc3c(c2)OCCO3)c1	-3	-6	-10	-11	-1.7	0.66	-0.4	i	-13%
O=C(NCc1ccc(C(F)(F)F)cc1)C1CC(c2cccc(F)c2)=NO1 (stereo not drawn)	-3	-1	2.1	2	-1.4	0.66	-1.5	i	.
CCCC(=O)Nc1ccc2c(c1)OC[C@H](C)N(CC1CCCC1)C[C@H](C)[C@H](OC)CN(C)C2=O	1	1	-1.0	.	.	.	-2.3	i	.
O=C(Nc1ccc(Br)cc1F)c1ccncc1	.	.	.	15	-3.5	0.74	.	.	?
C[C@H]1CN([C@@H](C)CO)C(=O)Cc2cc(NC(=O)c3ccncc3)ccc2O[C@@H]1CN(C)S(=O)(=O)c1ccc(Cl)cc1	-1	0	-2.7	.	.	.	-0.9	i	.
Cc1ccc(CNS(=O)(=O)c2ccc(CN3C(=O)c4cccnc4C3=O)s2)o1	0	12	-1.8	6	6.2	0.72	-3.7	i	3%
CCOc1c(CNCCN2CCOCC2)cccc1OC	.	.	.	-1	-1.7	0.7	.	.	9%
Cc1ccc(CNC(=O)[C@H](C)NC(=O)C2CCN(C(=O)[C@@H](N)CC(C)C)CC2)cc1	.	.	.	-5	-0.6	0.68	-2.2	i	.
OCCCn1c(CCCNc2nc(-c3cccc(Br)c3)cs2)nc2cc(Cl)c(N3CCCCC3)cc21	7	2	6.6	-2	3.6	0.71	-11	i	.
N#CCCN(Cc1cccnc1)CN1C(=O)c2ccccc2C1=O	-1	4	-4.9	.	-1.6	.	-2.6	i	9%
O=c1[nH]nc(-c2ccccc2)c2ccccc12	6	1	0.8	-5	6.5	0.69	-7.7	i	31%
O=[N+]([O-])c1ccc2[nH]c3c(c2c1)CCCC3O (stereo not drawn)	-47	-40	-11	-3	-2.1	0.65	3.0	.	10%
O=C(C[C@@H]1CC[C@H]2[C@@H](COC[C@@H](O)CN2Cc2cccc(C(F)(F)F)c2)O1)NCc1ccccc1	-3	-14	1.1	.	.	.	0.5	i	.
CCOC(=O)Cc1csc(NC(NC(=O)OCC)(C(F)(F)F)C(F)(F)F)n1	.	.	.	-3	2.5	0.74	.	.	-3%
Cc1ccc(S(=O)(=O)NCC(=O)OCC(=O)NCCc2ccccc2)cc1	2	4	1.8	2	1.5	0.69	-0.4	i	1%
COc1cccc(NC(=O)CN(C)C(=O)c2ccc(NS(=O)(=O)c3ccc(F)cc3)cc2)c1	-4	-3	2.3	2	0.9	0.71	0.2	i	-7%
